# High-throughput results (PubChem BioAssay)
# Hsc70 ATP site: Hsc70 inhibitors, probe displacement, primary screen, biochemical, fluorescence polarization (AID 568); displacement, % at 20 µM, or IC50 in µM where a hit was titrated; Heat shock cognate 71 kDa protein (Homo sapiens); Hsc70 fluorescence polarization, probe displacement; higher % means a stronger effect; strong numbers were not always called active; 83,000 tested, under 10 active;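 active = displacement above 50% without optical interference and an IC50 on retest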;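 note: ATPase domain with a fluorescein-tagged ATP probe; 0% = vehicle and 100% = excess ADP; read after one hour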
# WNV protease inh: inhibitors of WNV NS2B-NS3 protease, primary screen, biochemical, fluorogenic substrate; Genome polyprotein (West Nile virus), P06935; fluorogenic substrate Ex360/Em465; hits give low values; z-score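 (tested at a level between 10 and 100 µM)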; hit rate 0.18% among 65,000; AID 577, 2007;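 active = z-score at -3 or under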;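 note: score is relative to mean and spread of the compound wells of a plate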
# Target sequence (P06935 1371-1501 limits assumed): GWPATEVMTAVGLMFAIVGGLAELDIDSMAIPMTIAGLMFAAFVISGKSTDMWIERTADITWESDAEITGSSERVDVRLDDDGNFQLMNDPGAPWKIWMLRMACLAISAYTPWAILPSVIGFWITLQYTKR
# Target sequence (P06935 1502-1679 limits assumed): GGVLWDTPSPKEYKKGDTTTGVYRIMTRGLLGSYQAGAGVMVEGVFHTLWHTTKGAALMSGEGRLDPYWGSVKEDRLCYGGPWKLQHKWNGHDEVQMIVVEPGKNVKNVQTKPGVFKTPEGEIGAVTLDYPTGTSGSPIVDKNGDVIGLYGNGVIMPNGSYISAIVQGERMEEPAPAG
# MT1-MMP reporter: inhibitors of MT1-MMP promoter transcription, cell-based, luciferase reporter, luminescence (AID 618); MT1-MMP promoter luciferase reporter cells, luminescence; hit rate 0.62% among 87,000; calls from a first round at 10 µM; hits with a dose series show EC50 in µM;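 active = over half of the reporter light lost at 10 µM or EC50 under 50 µM; inactive = the rest and hits that failed the dose series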;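 note: actives suppress MT1-MMP promoter-driven transcription so potencies describe inhibitors; HT1080 fibrosarcoma cells; overnight exposure; toxic or luciferase-blocking compounds were not removed from the actives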
# * marks the source's active call; other numbers are inactive results; i = inactive; . = not tested or not shown.
canonical_smiles	Hsc70 ATP site	WNV protease inh	MT1-MMP reporter
S=C1NNC2(NN1)C1CC3CC(C1)CC2C3	2.6%	.	i
CCOC(=O)c1ccc(NC(=O)C(C)NS(=O)(=O)c2ccc(OC)cc2)cc1 (stereo not given)	-1.5%	-1.1	i
CC(=O)NCCOc1cccc2cccnc12	4.2%	.	i
CCOC(=O)c1c(NC(=O)OC)sc(C(=O)N(CC)CC)c1C	-5.4%	-0.79	i
Cc1csc(NC(=O)C2C3C=CC(O3)C2C(=O)O)n1 (stereo not given)	6.7%	-2.5	i
NC(=O)CSc1nnc(-c2cccnc2)n1CCc1ccccc1	-3.9%	-0.89	i
Cc1cc(Cl)c(S(=O)(=O)Nc2ccc3c(c2)OCO3)cc1OCC(N)=O	10%	0.31	i
Cc1cc(C)c2[nH]c(=O)c(CN(CC3CCCO3)C(=O)c3cnccn3)cc2c1 (stereo not given)	0.1%	-0.22	i
Cc1ccc(S(=O)(=O)NCC(=O)N(CC(=O)NC2CCCC2)c2ccc3c(c2)OCCO3)cc1	2.2%	0.01	i
O=C1CC(N2CCN(c3ccccn3)CC2)C(=O)N1CC(c1ccccc1)c1ccccc1 (stereo not given)	-1.3%	.	i
CCn1cc(C(=O)N(CCCN2CCOCC2)Cc2ccco2)c(=O)c2ccc(C)nc21	-2.2%	-0.08	i
Cn1c(SCC(N)=O)nnc1C1CCN(C(=O)NC2CCCCC2)CC1	0.2%	0.48	i
COc1ccc(CNCc2cc3c(C(C)(C)C)nn(-c4ccccc4)c3[nH]c2=O)cc1	-2.5%	.	i
CN1CCN(CC(=O)N2c3ccccc3C(=O)Nc3cccnc32)CC1	-1.9%	-1.4	i
O=C(Nc1ccc2nsnc2c1)c1cccs1	6.7%	0.25	i
N#Cc1c(C(F)(F)F)cc(-c2ccco2)nc1SCc1ccccn1	-5.8%	1.1	i
O=S(=O)(NCc1cn2ccsc2n1)c1ccc2c(c1)OCCO2	-3.9%	0.86	i
Cc1csc(SCC(=O)N2CCN(S(=O)(=O)c3ccccc3)CC2)n1	5.7%	0.58	i
COc1ccc(C2(C(N)=O)CCCCC2)cc1OC	0.5%	-0.29	i
Cc1nc(SCC(=O)N2CCN(c3ccccc3)CC2)c2c(=O)n(C)c(=O)n(C)c2n1	0.7%	-0.5	i
COc1ccc(C)cc1NC(=O)c1ccc2c(c1)OCO2	0.2%	-2.2	i
Cc1nc(N2CCN(c3ccccc3)CC2)c2c3c(sc2n1)CCC3	-7.2%	-0.33	i
Cc1cc(Nc2cnc3ccccc3n2)n(-c2ccccc2)n1	4.4%	.	i
Cc1cc(C)c2c(n1)nn1c(NCCN3CCOCC3)cc(C)nc21	-1.7%	3.2	i
Cc1cc(C(=O)CSc2nnc(-c3ccccc3)n2C)c(C)n1C	2.2%	0.03	i
CC1CCN(CCc2nc3cc(NS(=O)(=O)c4ccc(F)cc4)ccc3n2C)CC1	2.4%	-1.4	i
COC(=O)c1cc(OC)c(OC)cc1NC(=O)c1ccoc1C	2.0%	-1.1	i
CCc1ccc(NC(=O)Cn2c(SC)nc3ccccc32)cc1	5.9%	1.7	i
CCOC(=O)c1c(C)[nH]c(C(=O)Cn2nnc(-c3ccccc3Cl)n2)c1C	1.9%	-0.12	i
COC(=O)c1[nH]c2ccc(C)cc2c1NC(=O)NC1CCCCC1	3.6%	.	i

# The listing continues:
canonical_smiles	Hsc70 ATP site	WNV protease inh	MT1-MMP reporter
CCOc1ccccc1-n1c(SCC(=O)N2CCCC2)nnc1-c1ccoc1C	1.0%	0.66	i
OC(Cn1cccn1)c1ccccc1 (stereo not given)	-0.4%	1.2	i
Cc1cc2c(c(=O)o1)C(C1C=CCCC1)C(C#N)=C(N)O2 (stereo not given)	3.4%	.	i
Cc1ccc(-n2ncc3c(N4CCC(C(N)=O)CC4)ncnc32)c(C)c1	7.1%	-0.2	i
Cc1ccc(C)n1-c1ccc(-c2nnc3n2CCCCC3)s1	0.2%	-0.32	i
COC(=O)c1cc(C(=O)CSc2nc(C)cc(C)n2)ccc1O	-0.2%	-0.73	i
Cc1cccn2cc(-c3ccccc3)nc12	1.6%	-0.33	i
COC(=O)CNC(=O)C1CCCN1C(=O)OC(C)(C)C (stereo not given)	-7.8%	-0.06	i
CCCCN(CCCNC(=O)c1c(C)cc(=O)oc1C)c1ccccc1	7.9%	-0.82	i
Cc1nn(-c2cccc(Cl)c2)c2c1C(c1cccnc1)C(C#N)=C(N)O2 (stereo not given)	2.8%	-0.85	i
Cc1c(CN2CCN(c3cccc(C(F)(F)F)c3)CC2)c(=O)n(-c2ccccc2)n1C	11%	-0.2	i
CCOC(=O)c1c(C)cc(=O)oc1C	5.1%	.	i
O=C(NC1(C(=O)NC2CCCCC2)CCCCC1)c1ccc2c(c1)OCO2	2.4%	-0.98	i
CCOCN(C(=O)Cn1c(CO)nc2ccccc21)c1c(C)cccc1CC	0.5%	-0.95	i
COCCCN(Cc1ccccn1)S(=O)(=O)Cc1ccccc1	3.2%	-0.26	i
COc1ccc(-c2nn3c(-c4ccccc4)nnc3s2)cc1	1.3%	1.1	i
c1ccc(-n2ncc3c(NCc4cccnc4)ncnc32)cc1	6.6%	-0.66	i
Nc1c(C(=O)NC2CCCC2)sc2nc(-c3cccs3)ccc12	-4.7%	-0.83	i
Cc1ccc(C(C)C)c(OCC(=O)OCc2c(C)noc2C)c1	-1.1%	-0.13	i
O=C(O)c1cccc(NS(=O)(=O)c2cccc3nsnc23)c1	2.2%	.	i
CN(C)c1nc(OCCOC(=O)Nc2ccc(Cl)cc2Cl)nc(N(C)C)n1	2.1%	-0.85	i
COC(=O)C(Cc1cnc(Cl)s1)(C(=O)OC)c1ccc([N+](=O)[O-])cc1[N+](=O)[O-]	0.5%	.	i
O=C(CN1C(=O)NC2(CCCCC2)C1=O)Nc1ccc(S(=O)(=O)N2CCOCC2)cc1	-4.6%	0.18	i
Cc1nnc(SCC(=O)NC(C)(C)C)n1CCc1ccccc1	5.2%	-0.41	i
COc1cnc(N(C)C)nc1Sc1cccc(Cl)c1	2.7%	.	i
CCOC(=O)c1sc2ncnc(OC)c2c1C	-2.6%	-1.9	i
COc1ccccc1N1CCN(C(=O)c2cc(-c3cccc(Cl)c3)on2)CC1	3.6%	0.96	i
Cc1ccccc1C(C(=O)NCc1ccco1)N(CC1CCCO1)C(=O)Cn1nnc2ccccc21 (stereo not given)	-7.4%	0.89	i
Cc1cccc(Nc2nc(NCc3ccco3)nc(N3CCOCC3)n2)c1	-1.5%	-1.2	i
COc1ccc(Oc2coc3c(CN4CCOCC4)c(O)ccc3c2=O)cc1	-6.7%	.	i

# As entered above.
# Under WNV protease inh, `CCOC(=O)c1sc2ncnc(OC)c2c1C` has the entry -1.9
# Under WNV protease inh, `COc1ccc(-c2nn3c(-c4ccccc4)nnc3s2)cc1` has the entry 1.1
# Under Hsc70 ATP site, `Cc1cc2c(c(=O)o1)C(C1C=CCCC1)C(C#N)=C(N)O2` (stereo not given) has the entry 3.4%

# Next part.
canonical_smiles	Hsc70 ATP site	WNV protease inh	MT1-MMP reporter
CCC(=O)Nc1cccc2c1C(=O)N(C)C2=O	8.2%	.	i
Cc1nc(=O)c(-c2ccccc2)c(C)n1CCCCCC(=O)O	3.6%	.	i
CCc1nnc(NC(=O)CSc2nnc3c4ccccc4n(C)c3n2)s1	2.0%	-0.82	i
CCn1c(SCc2ccc(Cl)cc2)nnc1-c1ccccc1	2.1%	.	i
CCOP(=O)(c1ccccc1)c1nc(-c2ccccc2Cl)oc1N1CCCCC1 (stereo not given)	-4.1%	.	i
COc1ccc2c(c1OC)C(=O)N(c1ccc(C)c(C)c1)C2=O	-4.7%	.	i
CC(=O)N1CCCc2cc(S(=O)(=O)N3CCN(C4CCCCC4)CC3)ccc21	-0.2%	0.07	i
Cc1nn(Cc2ccccc2Cl)c(C)c1C(=O)NC1=NCCS1	0.6%	-1.1	i
CCOC(=O)N1CCN(C(=O)CN(c2cccc(C(F)(F)F)c2)S(=O)(=O)c2ccccc2)CC1	-3.1%	0.31	i
O=C(C1CC1)N1CCN(C(c2ccccc2)c2ccccc2)CC1	0.7%	.	i
COc1cc2c(cc1OC)C(C)N(C(C)=O)CC2 (stereo not given)	2.3%	.	i
C[C@@]12CC(=O)NC1N(C(=O)c1ccccc1)C(c1ccccc1OC(=O)c1ccccc1)C2 (stereo not given in full)	-0.4%	.	i
CC(C)Nc1nc2n(c(=O)n1)CCN2C(C)C	4.1%	0.77	i
CCn1c(O)c(N=NC(=O)CNC(=O)/C=C/c2ccco2)c2ccccc21	-2.1%	.	i
Cc1cc(NC(=O)COc2nnc(-c3ccccc3)c3ccccc23)no1	3.7%	0.89	i
O=C(O)c1ccc(N(c2ccccc2)c2ccccc2)cc1	-3.3%	.	i
CCOC(=O)COc1ccc(Br)cc1C1NC(=O)NC(C)=C1C(=O)NCc1ccccc1 (stereo not given)	3.5%	.	i
CC(C)OC(=O)CN1CCN(S(=O)(=O)c2cc(Cl)ccc2Cl)CC1	-4.0%	-0.6	i
COC(=O)c1ccc(CSc2nnc3n(Cc4ccccc4OC)c(=O)c4ccccc4n23)o1	0.9%	0.42	i
CCOC(=O)c1c(C)c(C(=O)NCc2ccco2)c(C)n1Cc1ccccc1	-1.2%	-0.21	i
CCN(CC)S(=O)(=O)c1cc(OC)c(Cl)cc1Cl	0.0%	.	i
CCCCOC(=O)Nc1ccc(C(=O)OCCC)cc1	3.8%	-2.4	i
COc1ccc(C(=O)N2CC3(C)CC2CC(C)(C)C3)cc1 (stereo not given)	-7.3%	-0.47	i
CCOC(=O)CN1C(=O)Nc2ccc(Br)cc2C1c1ccccc1 (stereo not given)	0.8%	.	i
CCOC(=O)c1cc2cc3ccccc3cc2[nH]1	-1.7%	.	i
Cc1ccc(NC(=O)CSc2nnc(NC(=O)CN3CCOCC3)s2)cc1	3.9%	-0.42	i
O=C1CC(O)(C(F)(F)F)Oc2c1ccc1ccccc21 (stereo not given)	2.8%	0.46	i
Cn1c(NCc2ccccc2O)nc2ccccc21	-0.2%	0.81	i
COc1ccc(N2C(=O)C(CC(=O)Nc3ccccc3)N(Cc3ccc4c(c3)OCO4)C2=O)cc1 (stereo not given)	1.6%	-0.51	i
CCOc1ncccc1C(=O)Nc1ccc(-c2cn3ccsc3n2)cc1	-3.7%	0.27	i

# An excerpt of these results, with values under each structure.
# The line under a structure holds: Hsc70 ATP site	WNV protease inh	MT1-MMP reporter
> CCn1cc(C(=O)N(CCCN2CCOCC2)Cc2ccco2)c(=O)c2ccc(C)nc21
→ -2.2%	-0.08	i
> Cn1c(SCC(N)=O)nnc1C1CCN(C(=O)NC2CCCCC2)CC1
→ 0.2%	0.48	i

# Next records.
canonical_smiles	Hsc70 ATP site	WNV protease inh	MT1-MMP reporter
O=C(CCCOc1ccccc1)n1nnc2ccccc21	-2.1%	-0.23	i
C#CC(CC)(CC)NC(=O)c1c(C)noc1C	-1.1%	0.33	i
CCN1CCN(C(=O)CS(=O)(=O)Cc2nc(-c3ccc(C)cc3)oc2C)CC1	2.9%	0.73	i
CCCCn1nnnc1SCC(=O)Nc1ccc(N(C)C)cc1	5.4%	.	i
COc1ccc(-n2cc(-c3ccccc3)c3c(N4CCN(CCO)CC4)ncnc32)cc1	1.2%	0.21	i
CCOc1ccccc1OCC(=O)NC1CCCCC1	0.7%	.	i
CCOc1nc(-c2ccccc2)ccc1-c1noc(-c2ccco2)n1	-6.1%	0.33	i
C=CCSc1n[nH]c(-c2ccc(OCCC)cc2)n1	-3.3%	-0.81	i
COc1cc(CCC(=O)OCn2nnc3ccccc3c2=O)cc(OC)c1OC	-3.5%	-0.61	i
CCNC(=O)Cn1c(=O)c2c(ncn2Cc2ccccc2)n(Cc2ccccc2)c1=O	-4.1%	.	i
CCCn1nnc(NC(=O)c2ccccc2Cl)n1	7.8%	-0.11	i
COc1ccccc1N(CC(=O)Nc1ccccc1C(=O)NCC(C)C)S(C)(=O)=O	-0.9%	-0.09	i
CCC(=O)Nc1ccc(NC(=O)CSc2nnnn2C(C)C)cc1	-7.0%	-0.28	i
Cn1c(=O)c2c(-c3ccccc3)n(Cc3ccccn3)cc2n(C)c1=O	4.4%	0.01	i
O=C(CSc1nc(O)cc(=O)[nH]1)N1CCCc2ccccc21	-2.6%	-0.76	i
Cc1nc2cc(NC(=O)NCc3ccco3)ccc2n1C	0.7%	-0.37	i
COc1ccc(Cl)cc1N(CC(=O)Nc1cccc(SC)c1)S(C)(=O)=O	1.2%	.	i
CCCCCN=Cc1c(C)[nH]n(-c2nc3ccccc3s2)c1=O	7.0%	-0.38	6.1µM*
COc1ccccc1-c1nnc(SCC(=O)NC2CCCCC2)o1	3.5%	0.69	i
Cc1cccc(NC(=O)N(Cc2cc3cc(C)cc(C)c3[nH]c2=O)CC2COCCO2)c1 (stereo not given)	0.3%	.	i
c1ccc(CN2CCN(c3ncccn3)CC2)nc1	-2.6%	-0.14	i
COc1ccc2c(C(=O)CN3CCN(CCO)CC3)c[nH]c2c1	0.5%	-0.55	i
Cc1cc(=O)oc2cc(OC(C)C)ccc12	-3.2%	-0.99	i
Cc1ccc(OCCCn2c(=O)sc3ccccc32)cc1	1.7%	.	i
CCc1ccc2[nH]c(=O)c(CN(CCO)C(=O)NCc3ccccc3)cc2c1	-1.8%	-0.09	i

# The order is random. Share with any hit: about 0.8%.
